Menin-MLL FL inh = inhibitors of human menin-MLL interaction, wild-type MLL peptide; Fluorescence polarization, fluorescein-MLL peptide displacement from menin; FP activity change, % at 61.4 µM; 290,000 tested, under 10 active; AID 1766; inconclusive = falling polarisation curve, or a change in total fluorescence; inactive = total fluorescence flat and polarisation flat or rising; no compound was filed as active; the % refers to the polarisation; negative = inhibition;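 further: % of control where 0% means no effect; inhibitors lower the polarisation; unlabelled MLL peptide was the positive control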
gsp antagonist = gsp mutant antagonism; gsp-mutant cells, cAMP HTRF, 30 min; control for the full effect not named in the record; Potency, µM (highest dose often 76.9 µM), for inactives: top-dose activity change, negative = inhibition, most hits filed as inhibitors; hit rate 0.4% among 340,000; AID 624288; active = falling curve of any shape with a large fitted effect; inconclusive = falling curve, mostly with a smaller effect; inactive = flat or rising curve; cell line not stated here;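 further: intracellular cAMP measured with PDE inhibitor Ro 20-1724 present during compound exposure; potency means the concentration at half of the fitted maximal effect; on the % scale 0 is the no-effect control and ±100 the full control effect; nearly all actives have a fitted effect of over 65% in size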
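HTRF cAMP measurement after 30 min RT detection following 30 min, 37C compound treatment alongside […] (added as 300 uM solution) in G418-selected cells seeded at 2000/well and grown 16–24 h.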
Sfp inh = inhibitors of Bacillus subtilis Sfp phosphopantetheinyl transferase. Q9F4F7. Biochemical Sfp PPTase activity, qHTS. Potency, µM, for inactives: max response, negative = inhibition, actives largely listed as inhibitors. hit rate 3.5% among 310,000. AID 1490; active means well fitted inhibition curve with a large enough effect; inconclusive means small, poorly fitted or top-dose-only effect, or another doubt; inactive means no such curve, though single readings can be large or run the other way;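 further: the enzyme is Sfp with the accession as filed and its product quenches rhodamine fluorescence; potency means the concentration at half of the fitted maximal effect; 0% = enzyme reaction without inhibitor and -100% = no enzyme wells; top concentration of the series not given in the record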
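Reaction rates are the 30-min fluorescence difference (ex 525, em 598 nm) in wells containing 15 nM Sfp, 5 uM rhodamine-CoA and 12.5 uM BHQ-2-YbbR at pH 7.6 with 10 mM MgCl2.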
ClpP mod = qHTS Assay for Activators of ClpP. ATP-dependent Clp protease proteolytic subunit (Bacillus subtilis (strain 168)), P80244. purified B. subtilis ClpP, FRET peptide cleavage, 20 min. Potency, µM (top dose mostly 57.5 µM), without a hit: at the highest dose activity change, negative = active. hit rate 1.9% among 340,000. AID 651965, 2013; active = well fitted falling curve with a large enough effect; inconclusive = small, poorly fitted or top-dose-only effect; inactive = no such curve, though single readings can be large or run the other way; further: potency means the concentration at half of the fitted maximal effect; the source files actives as falling curves though it sought activators and does not explain the sign; nearly all actives have a fitted effect of over 65% in size; many hits overshoot -100%
Target sequence (P80244 whole entry, looked up): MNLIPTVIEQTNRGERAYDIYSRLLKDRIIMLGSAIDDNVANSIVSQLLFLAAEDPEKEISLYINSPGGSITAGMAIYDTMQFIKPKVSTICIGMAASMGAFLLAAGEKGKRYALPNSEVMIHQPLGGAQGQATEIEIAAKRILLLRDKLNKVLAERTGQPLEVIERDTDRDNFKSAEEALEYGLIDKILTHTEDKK
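FRET quenching reversal measured ClpP activation: 10 microg/mL B. subtilis ClpP at pH 8 with the FRET-FV decapeptide, read at 430 nm after 320 nm excitation. The 20-min minus 0-min signal was scaled between DMSO/no-enzyme wells and ADEP (5.8 microM final).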
D2 potentiator = human D2 receptor positive allosteric modulation; P14416; hit rate 0.23% among 360,000; DiscoveRx D2 beta-arrestin cells, luminescence, 90 min; 100% = 57 uM dopamine signal; potentiation, % (test concentration not listed); active = potentiation of 50% or more; inconclusive = 30% to 50%; inactive = 30% or less;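 further: compound concentration not given in the record; tested on top of an EC20 dose of dopamine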
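D2 cells co-treated with compound plus 50 nM dopamine (EC20) for 90 min at 37 deg C to detect potentiation. Beta-arrestin recruitment was read as enzyme-fragment luminescence after 1 h at ambient temperature. Full response was set by 57 uM dopamine.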
TRPV1 potentiator = enhances activation of the human vanilloid receptor TRPV1; Q8NER1; TRPV1-expressing cells, Fluo-8 calcium influx, capsaicin EC20 potentiation; host cell line not named in the record; control for the full effect not named in the record; potentiation, % at 8.33 µM; hit rate 0.02% among 320,000; AID 540277; active means potentiation above 80%; inconclusive means 30% to 80%; inactive means below 30%; further: 0% is about no effect
Target sequence (Q8NER1 whole entry, looked up): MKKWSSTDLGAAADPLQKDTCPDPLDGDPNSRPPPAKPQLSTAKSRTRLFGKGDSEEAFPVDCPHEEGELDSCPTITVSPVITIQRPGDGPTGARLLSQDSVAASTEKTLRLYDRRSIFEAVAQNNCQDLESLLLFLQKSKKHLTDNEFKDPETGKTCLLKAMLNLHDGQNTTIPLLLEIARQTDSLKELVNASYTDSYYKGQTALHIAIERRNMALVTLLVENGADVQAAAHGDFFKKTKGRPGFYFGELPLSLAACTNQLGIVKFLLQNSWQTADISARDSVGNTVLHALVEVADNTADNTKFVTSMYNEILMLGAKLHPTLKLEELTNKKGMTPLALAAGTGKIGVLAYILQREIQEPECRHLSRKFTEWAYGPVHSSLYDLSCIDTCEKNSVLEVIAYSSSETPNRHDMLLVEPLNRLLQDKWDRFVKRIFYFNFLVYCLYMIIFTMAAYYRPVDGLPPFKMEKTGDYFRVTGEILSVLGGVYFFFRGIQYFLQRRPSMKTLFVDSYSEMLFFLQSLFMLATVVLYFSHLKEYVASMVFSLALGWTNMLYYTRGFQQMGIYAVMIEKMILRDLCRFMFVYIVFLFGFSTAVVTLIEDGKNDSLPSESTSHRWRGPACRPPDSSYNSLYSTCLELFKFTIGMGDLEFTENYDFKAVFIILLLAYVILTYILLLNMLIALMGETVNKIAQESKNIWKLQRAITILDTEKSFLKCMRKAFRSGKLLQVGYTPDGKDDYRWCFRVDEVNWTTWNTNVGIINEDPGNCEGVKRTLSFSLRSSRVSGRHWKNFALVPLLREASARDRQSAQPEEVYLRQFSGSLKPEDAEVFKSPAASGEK
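Cells expressing TRPV1 were dye-loaded with Fluo-8 and read kinetically: 10 s baseline, 3 min after compound (agonist portion), then 2 min after EC20 capsaicin (allosteric enhancer portion). Calcium-bound dye fluorescence at 480/520 nm.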
gsp agonist = gsp mutant agonism; Potency, µM (top dose mostly 76.9 µM), for the others: at the top dose activation (cAMP increase), most hits filed as activators; gsp mutant cells, cAMP HTRF, 30 min; control for the full effect not named in the record; hit rate 0.13% among 340,000; active = well fitted activation curve with a large enough effect; inconclusive = small, poorly fitted or top-dose-only effect, or another doubt; inactive = no such curve, though single readings can be large or run the other way; cell line not stated here;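 further: phosphodiesterase inhibitor Ro 20-1724 added with compounds to block cAMP breakdown; potency means the concentration at half of the fitted maximal effect; nearly all actives have a fitted effect of over 60% in size; about a fifth of the inactives were tested at one dose only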
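Cells in DMEM/10% FBS with G418 were pretreated with compounds in DMSO plus […] (300 uM stock) for 30 min at 37C. cAMP was measured by HTRF (cAMP-d2 plus anti-cAMP antibody-K) after 30 min at room temperature.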
* marks the source's active call; other numbers are inactive results; u = inconclusive; x = no result given; & = joins results of further samples; [ ] = remark or other dose. Some of the compounds tested (hit frequency here may not be typical).

The first 3 compounds, ahead of the listing:
SMILES	Menin-MLL FL inh	gsp antagonist	Sfp inh	ClpP mod	D2 potentiator	TRPV1 potentiator	gsp agonist
COc1cccc(-n2c(O)c(C=NCCN3CCOCC3)c(=O)[nH]c2=O)c1	2.2	11%	10%	-0.2%	15	x	5%
COc1cc(CN2CC=C(c3ccc(F)cc3)CC2)cc(OC)c1	1.4	-1%	-1%	-0.7%	-2	5	-6%
CN1CCN(Cc2ccc(N)cc2)CC1	-1.2	22%	-1%	2.6%	-30	-5	-19%

This part in full (from the top)
SMILES	Menin-MLL FL inh	gsp antagonist	Sfp inh	ClpP mod	D2 potentiator	TRPV1 potentiator	gsp agonist
COc1cccc(-n2c(O)c(C=NCCN3CCOCC3)c(=O)[nH]c2=O)c1	2.2	11%	10%	-0.2%	15	x	5%
COc1cc(CN2CC=C(c3ccc(F)cc3)CC2)cc(OC)c1	1.4	-1%	-1%	-0.7%	-2	5	-6%
CN1CCN(Cc2ccc(N)cc2)CC1	-1.2	22%	-1%	2.6%	-30	-5	-19%
COc1ccc(N2C(=O)C3[C@@H](C2=O)C2(Cl)C(Cl)=C(Cl)C3(Cl)C2(OC)OC)cc1 (some centres undefined)	0.6	-3%	10%	3.5µM*	-4	-2	10%
CCCCOc1nc2ccccc2c(=O)n1-c1ccccc1	3.4	0%	u	-5.2%	0	0	1%
Cn1cc(C(=O)N2CCC3(CC2)OCCO3)c2c3ccccc3n(C)c2c1=O	-0.5	-2%	7%	14µM*	-11	-4	12%
COc1c2ccoc2cc2oc(=O)ccc12	8.1&-4.7	-6%	5%&8%	-14%	-3	x	-49%[inhibitor]
O=C1CSC2N1CCNC21CCCCC1 (centres undefined)	-4.6	-3%	-5%	1.0%	-30	3	15%
C[n+]1ccc(-c2ccncc2)cc1	2.3	6%	-6%	0.2%	12	4	-17%
O=C(COc1ccc2ccccc2c1)N1CCN(CC2CC3C=CC2C3)CC1 (centres undefined)	6.9	2%	u	-1.0%	-20	-17	-12%
C=C(C)CC1(CC)C(=O)NC(=S)NC1=O	x	9%	x	x	-3	x	-35%[inhibitor]
COc1ccccc1N1CCN(Cc2cc(C)c(C)cc2O)CC1	-5.7	3%	12%	1.1%	-19	-12	-2%[15.4 µM]
Cc1c(C)c2ccc(OCC(=O)N3CCC(C(=O)O)(c4ccccc4)CC3)cc2oc1=O	0.1	-5%	21%	5.4%	-12	16	x
CC(C)OC(=O)Cc1ccccc1	x	4%	x	-2.7%	-7	-2	x
CC1CN(c2cc([N+](=O)[O-])ccc2Cl)CC(C)N1 (centres undefined)	-2.7	8%	3%	-0.3%	-4	9	-17%
Oc1cc2c(cc1CN1CCN(c3ccccc3)CC1)OCO2	-12	12%	-3%	x	-5	-6	u
N[C@@H](Cc1c[nH]c2ccccc12)c1nnc(SCc2c(F)cccc2Cl)o1	0.9	-1%	-9%	-2.2%	2	3	17%
CC(CCc1ccccc1)NCCC#N (centres undefined)	2.8	14%	4%	x	6	1	0%
O=C1NC(=O)N(Cc2ccccc2)C(=O)/C1=C/C=C/c1ccco1	u	50µM*	u	0.3%	0	-9	19%
Cn1c(=O)n(CC(=O)N2CCC3(CC2)OCCO3)c(=O)c2ccccc21	0.1	4%	1%	u	-21	-3	11%
O=C(CNC(=O)c1cccs1)NCC(=O)OCC(=O)c1ccc([N+](=O)[O-])cc1	1.8	0%	u	x	-3	15	5%[15.4 µM]
Cc1ccc(-c2nc3ccccc3c(=O)n2-c2cccnc2)cc1	-0.1	4%	-4%	1.6%	-12	-24	-3%
CC(Cc1ccccc1Sc1ccccc1)N(C)C (centres undefined)	x	3%	-6%	-1.7%	-34	-25	-4%
CN1C(=O)/C(=C/c2ccc(Cl)s2)C(=O)NC1=S	u	-11%	13µM*	x	-3	4	2%
Cc1ccc2c(c1)CC1(CN2C)C(=O)NC(=O)N(C(C)C)C1=O (centres undefined)	3.6	2%	1%	1.3%	-5	-16	26%
CCOC(=O)[C@]1(C#N)[C@@H]2C=CC(C(C)=O)=CN2[C@@H](C(N)=O)[C@@H]1c1ccsc1	u	-9%	40µM*	-3.6%	6	29	u
CC(=O)NC(Cc1ccc(N(CCCl)CCCl)cc1)C(=O)NCC(=O)NCC(=O)O (centres undefined)	-15	-22%	-14%	x	8	6	-1%[15.4 µM]
CCCC(=O)NC(Oc1ccc(C(C)=O)cc1)C(Cl)(Cl)Cl (centres undefined)	-0.6	-1%	20%	x	-3	-4	2%
CC(=NCc1ccco1)c1c(O)n(C2CCCCC2)c(=O)[nH]c1=O	18	15%	u	-2.8%	9	-13	-3%
COc1cc([N+](=O)[O-])c2nc(C)ccc2c1[N+](=O)[O-]	x	7%	x	2.0%	u	x	2%
COC(=O)C1=C(c2ccc(S(C)(=O)=O)cc2)C[C@@H]2CC[C@H]1N2C(=O)NCCO	x	16%	x	1.2%	-3	x	-30%[inhibitor]
Cc1ccc(-c2nc(N(C)C3CCN(C)CC3)c3ccccc3n2)cc1	-2.8	13%	-2%	-2.7%	-28	-1	-20%
O=Cc1cn(Cc2cccc(F)c2)c2ccccc12	6.9	14%	-2%	-1.9%	-1	1	u
O=[N+]([O-])c1c2ccccc2cc2ccccc12	x	-18%	x	-1.4%	-10	-5	x
NCc1cc(=O)[nH]o1	u	7%	16%&-5%	-0.3%	6	-6	x
COC(=O)C1=C(C)OC(N)=C(C#N)C12C(=O)Nc1ccccc12 (centres undefined)	4.1	10%	u	-1.3%	0	3	6%
Nc1nonc1OCCCCOc1nonc1N	1.1	4%	5%	x	3	2	14%[15.4 µM]
O=C(Nc1ccc(F)cc1F)c1cccnc1Oc1cccc(C(F)(F)F)c1	-0.9&1.1	31%[activator]	10%&15%	69%	10	0	9%
O=C(Cc1ccccc1)N1CCN(CCCc2ccccc2)CC1	0.7	-6%	1%	0.1%	-17	-26	-9%[15.4 µM]
CC(C)N(CC#CCC1(O)c2ccccc2-c2ccccc21)C(C)C	1.9	4%	15%	1.2%	-9	-5	9%[15.4 µM]
Fc1ccc(C2N3CCCN23)cc1 (centres undefined)	0.7	8%	7%	28µM*	-6	12	-4%[15.4 µM]
O=C(NCNC(=O)NC1C(=O)NC(=O)N1CO)NC1C(=O)NC(=O)N1CO (centres undefined)	-2.0	2%	11%	1.1%	-3	7	x
Cc1ccsc1CNCCc1ccc(F)cc1	-2.1	-7%	18%	-1.9%	-6	-1	9%
Cc1cccc(N=Cc2c(O)n(C)c(=O)n(C)c2=O)c1	-9.6	-3%	5%	-0.8%	5	-12	10%[15.4 µM]
CCCCn1c(N)c(N(CC(C)C)C(=O)c2cc(Br)c(Br)s2)c(=O)[nH]c1=O	x	-1%	x	3.8%	-4	x	-8%
Cc1ccc(-n2c(O)c(C=NC3CCCC3)c(=O)[nH]c2=O)c(C)c1	-1.0	-3%[15.4 µM]	2%	-1.1%	10	1	12%
O=C(C1CCN(S(=O)(=O)N2CCOCC2)CC1)N1CCC2(CC1)OCCO2	-0.9	9%	16%	-3.2%	-1	13	6%
CCN1C[C@]2(CO)CC[C@H](OC)[C@@]34C2[C@H](OC)[C@@](O)(C13)[C@@]1(O)C[C@H](OC)[C@H]2C[C@@H]4[C@@H]1[C@H]2OC	1.7	8%	8%	-3.5%	2	9	39%
O=C1/C(=C/c2ccncc2)N2CCC1CC2	-1.7	10%	9%	x	-3	2	-15%
CC(=O)OC1CC[C@@]2(C)C(=CC(=O)C3C4CCC(OC(C)=O)[C@@]4(C)CCC32)C1 (some centres undefined)	x	-10%	x	1.3%	-1	x	-2%[15.4 µM]
CCCCn1c(O)c(C(CC)=NCCc2ccccc2)c(=O)[nH]c1=O	0.0	-9%	-9%	0.4%	-1	-6	18%
O=[P+](Cc1ccccc1)Cc1ccccc1	3.7	14%	23%	-1.4%	-25	u	4%
CCN1C[C@]2(COC(=O)c3ccccc3N)CC[C@H](OC)C34[C@@H]5C[C@H]6[C@H](OC)[C@@H]5[C@](O)(C[C@@H]6OC)[C@@](O)([C@H]13)[C@@H](OC)[C@@H]42	-4.3	-5%	14%	3.7%	-3	16	u
O=C(NCc1ccccc1)c1cccn(Cc2ccccc2)c1=O	4.2	2%	3%	3.4%	11	7	9%
CCC(=NCCCN1CCOCC1)c1c(O)n(Cc2ccccc2)c(=O)[nH]c1=O	2.6	-15%	2%	0.1%	-9	u	-38%[inhibitor]
COC(=O)C1=C(N)Oc2cc(C)oc(=O)c2C12C(=O)Nc1ccccc12 (centres undefined)	5.6	9%	-5%	1.1%	-11	2	7%
CN1C(=O)C[N+]([O-])=C(c2ccccc2)c2cc(Cl)ccc21	x	0%	x	x	-7	x	-3%
O=c1c2ccccc2nc(/C=C/c2ccccn2)n1-c1ccccc1	1.5	23%	7%	0.5%	3	-4	3%
CCOC(=O)CC1=C(C(=O)OCC)C2(C(=O)N1CC(=O)OC)C(C#N)=C(N)Oc1ccccc12 (centres undefined)	-2.5	12%	13%	-0.2%	u	6	-7%
COc1ccc(OC)c(N=Cc2c(O)[nH]c(=O)[nH]c2=O)c1	-13	0%	-11%	0.9%	15	15	-17%
Additional records follow:
SMILES	Menin-MLL FL inh	gsp antagonist	Sfp inh	ClpP mod	D2 potentiator	TRPV1 potentiator	gsp agonist
COc1cccc(-n2c(/C=C/c3ccccn3)nc3ccccc3c2=O)c1	-1.4	3%	10%	x	4	-29	-25%
Cc1c2cnn(CC(=O)N3CCC4(CC3)OCCO4)c(=O)c2c(C)n1Cc1ccccc1	1.3	6%	10%	-19%	-17	-5	-1%
Cc1cc2cc(CNC(=O)Nc3ccc(Cl)c(Cl)c3)ccc2n1C	-8.0	1%	-28%	1.0%	-15	3	u
S=C(Nc1ccccc1)N1CCN(c2ccccn2)CC1	0.7	8%	-14%	-10%	-2	4	2%
Cc1nc2ccccc2c(=O)n1-c1ccc(C(=O)O)cc1	1.3	16%	21%	0.9%	3	-3	5%
O=C(c1cccc2ccccc12)C1CCCN(Cc2ccon2)C1 (centres undefined)	3.1	7%	8%	x	-7	4	-30%[15.4 µM]
CCCCCc1nc2ccccc2c(=O)n1-c1ccc(Cl)cc1[N+](=O)[O-]	-2.1	10%	-15%	2.9%	0	3	0%

Screens deposited in PubChem BioAssay by National Center for Advancing Translational Sciences (NCATS).
